POLH inh – qHTS for Inhibitors of Polymerase Eta. hit rate 1.2% among 390,000. AID 588591, 2011. Potency, µM (doses to about 114 µM), for inactives: at the highest dose activity change, negative = inhibition, hits mostly inhibitors. DNA polymerase eta (Homo sapiens), Q9Y253. recombinant Pol eta, fluorescent DNA replication assay; also: % is scaled to controls: 0 for no effect and ±100 for the full control effect
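Pol eta at 10 nM preincubated with compounds 15 min at room temperature; reaction started with fluorescent substrate (50 nM final) and read kinetically at 0 and 10 min.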
Pol iota inh – qHTS for Inhibitors of Polymerase Iota; DNA polymerase iota (Homo sapiens), Q9UNA4; Pol iota fluorescent replication assay, 10 min; Potency, µM (titrated, usually from 115 µM), for the others: at the top dose activity, negative = inhibition, most hits filed as inhibitors; hit rate 1% among 390,000
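Pol iota at 10 nM preincubated 15 min with compounds at room temperature; reaction started with fluorescent substrate, 50 nM final. Fluorescence read kinetically at 0 and 10 min; buffer-only wells as negative control.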
BLM helicase inh – qHTS Assay for Inhibitors of Bloom's syndrome helicase (BLM); hit rate 0.2% among 350,000; recombinant BLM DNA unwinding, fluorescence dequenching; Potency, µM (doses to about 56.1 µM), inactives show at the highest dose activity change, negative = inhibition, usual class: inhibitors; AID 2528, 2010;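 also: plate controls were vehicle for no effect and no enzyme for full effect; nearly all actives have a fitted effect of over 35% in size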
Pol kappa inh – qHTS for Inhibitors of Polymerase Kappa; DNA polymerase kappa (Homo sapiens), Q9UBT6; purified Pol kappa, fluorescent DNA synthesis assay, 10 min; Potency, µM (doses to about 107 µM), for the others: at the highest dose activity, negative = inhibition, hits mostly inhibitors; hit rate 0.53% among 400,000; AID 588579, 2011; also: % is scaled to controls: 0 for no effect and ±100 for the full control effect
Target sequence (Q9UBT6 whole entry, looked up): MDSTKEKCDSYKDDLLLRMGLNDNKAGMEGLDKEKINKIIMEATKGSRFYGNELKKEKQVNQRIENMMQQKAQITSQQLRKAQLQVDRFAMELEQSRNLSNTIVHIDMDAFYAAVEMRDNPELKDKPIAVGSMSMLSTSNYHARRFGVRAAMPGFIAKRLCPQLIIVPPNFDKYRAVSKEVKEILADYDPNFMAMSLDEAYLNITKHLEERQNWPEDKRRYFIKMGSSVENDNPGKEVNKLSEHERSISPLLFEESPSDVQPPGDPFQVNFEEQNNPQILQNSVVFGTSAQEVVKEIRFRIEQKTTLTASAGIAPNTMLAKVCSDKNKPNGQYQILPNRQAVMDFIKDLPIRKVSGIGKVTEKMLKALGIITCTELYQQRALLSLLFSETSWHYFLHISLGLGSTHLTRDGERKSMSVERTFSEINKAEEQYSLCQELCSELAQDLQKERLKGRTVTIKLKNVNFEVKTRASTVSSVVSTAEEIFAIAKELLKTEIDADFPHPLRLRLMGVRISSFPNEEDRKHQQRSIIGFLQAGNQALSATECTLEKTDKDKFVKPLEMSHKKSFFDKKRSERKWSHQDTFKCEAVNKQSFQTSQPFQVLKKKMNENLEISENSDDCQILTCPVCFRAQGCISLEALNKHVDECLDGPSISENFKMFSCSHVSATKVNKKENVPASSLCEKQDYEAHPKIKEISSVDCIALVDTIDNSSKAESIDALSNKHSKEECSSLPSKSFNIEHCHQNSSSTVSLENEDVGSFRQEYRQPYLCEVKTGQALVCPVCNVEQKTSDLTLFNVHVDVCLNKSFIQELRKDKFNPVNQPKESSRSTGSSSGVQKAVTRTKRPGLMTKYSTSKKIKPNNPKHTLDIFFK
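Kinetic fluorescence screen: compound preincubated 15 min RT with 10 nM enzyme; 50 nM substrate (final) initiates; reads at 0/10 min.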
Pol beta inh – qHTS Assay for Inhibitors of DNA Polymerase Beta | P06746 | Pol beta primer extension/strand displacement, fluorescence kinetic | Potency, µM (titrated, usually from 114 µM), for the others: at the highest dose activity change, negative = inhibition, most hits filed as inhibitors | hit rate 1.3% among 340,000 | AID 485314, 2010; also: % is scaled to controls: 0 for no effect and ±100 for the full control effect
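Pol beta (10 nM) was preincubated with compound for 15 min at room temperature. The reaction was then started with 50 nM substrate and read immediately and after a further 10 min at room temperature.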
APE1 inh – qHTS Assay for Inhibitors of the Human Apurinic/apyrimidinic Endonuclease 1 (APE1). recombinant APE1, TAMRA/BHQ-2 abasic DNA cleavage fluorescence. Potency, µM (series often up to 65.8 µM), for the others: at the highest dose activity change, negative = inhibition, most hits filed as inhibitors. hit rate 0.35% among 350,000. AID 2517, 2012;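 also: plate controls were vehicle for no effect and reference inhibitor for full effect; nearly all actives have a fitted effect of over 55% in size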
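Activity was derived from the fluorescence gain between first and third kinetic reads (60 s intervals, ex 525/em 598 nm) after 50 nM THF-abasic TAMRA/BHQ-2 duplex was added to 0.75 nM APE1 preincubated 15 min with compound.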
* marks the source's active call; other numbers are inactive results; [ ] = dose if it differs, or a comment. Calls follow the shape of the dose curve; as a rule, active = well fitted curve in the direction sought with a large enough effect; inconclusive = small, poorly fitted or top-dose-only effect, or another doubt; inactive = no such curve, though single readings can be large; an effect the other way counts as inactive or inconclusive. Potency is read from the fitted curve at half-maximal effect. An excerpt; count on the stated rates, not on these rows.

The first 8 entries (preview)
What do the screens show for `O=[N+]([O-])c1ccccc1-c1nc(-c2ccc(Br)o2)no1`?
POLH inh: inconclusive; Pol iota inh: -6%; BLM helicase inh: -9%; Pol kappa inh: -13%; Pol beta inh: 41%; APE1 inh: -1%

What do the screens show for `CCc1ccc(C(=O)CSc2n[nH]c(C)n2)cc1`?
POLH inh: -1%; Pol iota inh: inconclusive; BLM helicase inh: -13%; Pol kappa inh: -5%; Pol beta inh: -1%; APE1 inh: 12%

Results for CC(C)(C)c1ccc(OCCC(=O)Nc2ccc(N3CCOCC3)cc2N2CCOCC2)cc1 ?
POLH inh: -26%; Pol iota inh: 1%; Pol kappa inh: -1%; APE1 inh: -26%

What do the screens show for `CCN(CC)CC(=O)Nc1cc(N(C)C)nc2ccccc12`?
POLH inh: -12%; Pol iota inh: 35%[activator]; BLM helicase inh: 32%[activator]; Pol kappa inh: -10%; Pol beta inh: -17%; APE1 inh: -1%

Results for Cc1ccc(/C=C/C(=O)NCc2ccc3c(c2)OCO3)o1 ?
POLH inh: -23%; Pol iota inh: 6%; BLM helicase inh: 0%; Pol kappa inh: -15%; Pol beta inh: 1%; APE1 inh: -1%

How did COc1ccc(-n2c(SCC(=O)C(C)(C)C)nc3c(sc(=S)n3-c3ccccc3)c2=O)c(OC)c1 do in these assays?
POLH inh: -5%; Pol iota inh: 11µM*; BLM helicase inh: -19%; Pol kappa inh: 1%; Pol beta inh: -4%; APE1 inh: -12%

What do the screens show for `CS(=O)(=O)N(CC(=O)Nc1ccccc1)c1cccc(Cl)c1Cl`?
POLH inh: -6%; Pol iota inh: 20%; BLM helicase inh: -7%; Pol kappa inh: 3%; Pol beta inh: -6%; APE1 inh: -3%

How did Cc1ccc(C)c(N2CCN(CCN3CCCCC3)CC2)c1 do in these assays?
POLH inh: -3%; Pol iota inh: -4%; BLM helicase inh: 0%; Pol kappa inh: 3%; Pol beta inh: 91%; APE1 inh: 7%

The list itself, from the start:
What do the screens show for `O=[N+]([O-])c1ccccc1-c1nc(-c2ccc(Br)o2)no1`?
POLH inh: inconclusive; Pol iota inh: -6%; BLM helicase inh: -9%; Pol kappa inh: -13%; Pol beta inh: 41%; APE1 inh: -1%

What do the screens show for `CCc1ccc(C(=O)CSc2n[nH]c(C)n2)cc1`?
POLH inh: -1%; Pol iota inh: inconclusive; BLM helicase inh: -13%; Pol kappa inh: -5%; Pol beta inh: -1%; APE1 inh: 12%

Results for CC(C)(C)c1ccc(OCCC(=O)Nc2ccc(N3CCOCC3)cc2N2CCOCC2)cc1 ?
POLH inh: -26%; Pol iota inh: 1%; Pol kappa inh: -1%; APE1 inh: -26%

What do the screens show for `CCN(CC)CC(=O)Nc1cc(N(C)C)nc2ccccc12`?
POLH inh: -12%; Pol iota inh: 35%[activator]; BLM helicase inh: 32%[activator]; Pol kappa inh: -10%; Pol beta inh: -17%; APE1 inh: -1%

Results for Cc1ccc(/C=C/C(=O)NCc2ccc3c(c2)OCO3)o1 ?
POLH inh: -23%; Pol iota inh: 6%; BLM helicase inh: 0%; Pol kappa inh: -15%; Pol beta inh: 1%; APE1 inh: -1%

How did COc1ccc(-n2c(SCC(=O)C(C)(C)C)nc3c(sc(=S)n3-c3ccccc3)c2=O)c(OC)c1 do in these assays?
POLH inh: -5%; Pol iota inh: 11µM*; BLM helicase inh: -19%; Pol kappa inh: 1%; Pol beta inh: -4%; APE1 inh: -12%

What do the screens show for `CS(=O)(=O)N(CC(=O)Nc1ccccc1)c1cccc(Cl)c1Cl`?
POLH inh: -6%; Pol iota inh: 20%; BLM helicase inh: -7%; Pol kappa inh: 3%; Pol beta inh: -6%; APE1 inh: -3%

How did Cc1ccc(C)c(N2CCN(CCN3CCCCC3)CC2)c1 do in these assays?
POLH inh: -3%; Pol iota inh: -4%; BLM helicase inh: 0%; Pol kappa inh: 3%; Pol beta inh: 91%; APE1 inh: 7%

How did Cc1ccc([N+](=O)[O-])c(OCCN2CCCCCC2)c1 do in these assays?
POLH inh: -18%; Pol iota inh: 8%; BLM helicase inh: 12%; Pol kappa inh: 4%[60.1 µM]; Pol beta inh: -6%; APE1 inh: 4%

How did O=C(/C=C/c1ccc([N+](=O)[O-])cc1)Oc1ccc(/C=N/NC(=O)c2ccncc2)cc1 do in these assays?
POLH inh: inconclusive; Pol iota inh: 79µM*; BLM helicase inh: -20%; Pol kappa inh: 22µM*; Pol beta inh: -2%; APE1 inh: 80%[activator]

How did CCc1ccc(CSc2nccn2-c2ccccc2)cc1 do in these assays?
POLH inh: -14%; Pol iota inh: 4%; BLM helicase inh: -7%; Pol kappa inh: -14%; Pol beta inh: 11%; APE1 inh: 1%

How did COc1ccc(OCC(=O)NNC(=O)c2ccccn2)cc1 do in these assays?
POLH inh: 11%; Pol iota inh: 27%; BLM helicase inh: 0%; Pol kappa inh: -12%; Pol beta inh: 1%; APE1 inh: 0%

Results for O=C(O)C1CSC(c2ccc(O)c([N+](=O)[O-])c2)N1 (stereo not given) ?
POLH inh: -13%; Pol iota inh: 82%[activator]; BLM helicase inh: 1%; Pol kappa inh: 8%; Pol beta inh: 29%; APE1 inh: 5%

How did COCCN=c1scc(-c2ccccc2)n1/N=C/c1c[nH]c2ccccc12 do in these assays?
POLH inh: -8%; Pol iota inh: -7%; BLM helicase inh: -2%; Pol kappa inh: -15%; Pol beta inh: 14%; APE1 inh: 4%

What do the screens show for `CCOC(=O)c1sc(=S)n(C)c1NC(=O)c1ccccc1C`?
POLH inh: -12%; Pol iota inh: -2%; BLM helicase inh: -2%; Pol kappa inh: -17%; Pol beta inh: 27%; APE1 inh: -4%

What do the screens show for `OCCOC[C@H]1O[C@H](OCCO)[C@H](OCCO)[C@@H](OCCO)[C@@H]1OCCO` (tested in a mixture with another compound)?
BLM helicase inh: 4%; Pol kappa inh: 5%[19.4 µM]

Results for Cc1ccc(OCCCn2ccnc2)c([N+](=O)[O-])c1 ?
POLH inh: -20%; Pol iota inh: 156%[activator]; BLM helicase inh: 0%; Pol kappa inh: -12%; Pol beta inh: 9%; APE1 inh: 0%

How did COc1ccc(CNCc2cccc(C)c2)cc1 do in these assays?
POLH inh: -10%; Pol iota inh: 48%[activator]; BLM helicase inh: -4%; Pol kappa inh: -6%; Pol beta inh: 25%; APE1 inh: 20%

What do the screens show for `CCN(CC)CCOc1ccc(/C(=C(\Cl)c2ccccc2)c2ccccc2)cc1`?
POLH inh: -8%; Pol iota inh: -11%; BLM helicase inh: 0%; Pol kappa inh: -2%; APE1 inh: -4%

What do the screens show for `O=C(CSc1n[nH]c(-c2ccccc2)n1)c1ccccc1`?
POLH inh: -13%; Pol iota inh: -27%; BLM helicase inh: 3%; Pol kappa inh: 9%; Pol beta inh: -1%; APE1 inh: -10%

What do the screens show for `Cc1ccccc1-c1ccc(C=Nc2c(C)n(C)n(-c3ccccc3)c2=O)o1`?
POLH inh: -22%; Pol iota inh: 25%; BLM helicase inh: -6%; Pol kappa inh: -18%; Pol beta inh: -1%; APE1 inh: -6%

How did C/C(CC(=O)Nc1ccccn1)=N\NC(=O)c1cnccn1 do in these assays?
POLH inh: -21%; Pol iota inh: 35%[activator]; BLM helicase inh: 0%; Pol kappa inh: -10%; Pol beta inh: -1%; APE1 inh: -2%

Results for C=CCN(CC=C)CCOc1ccc2ccccc2c1 ?
POLH inh: -8%; Pol iota inh: -1%; BLM helicase inh: 3%; Pol kappa inh: -6%; Pol beta inh: 1%; APE1 inh: -3%

How did CCCCCC1CC1C(=O)N/N=C/c1ccc(N(C)C)cc1 (stereo not given) do in these assays?
POLH inh: -17%; Pol iota inh: 13%; BLM helicase inh: -8%; Pol kappa inh: -11%; Pol beta inh: 2%; APE1 inh: 3%

How did COc1cccc(CN2CCCC(C(=O)N3CCCCC3)C2)c1 (stereo not given) do in these assays?
POLH inh: -4%; Pol iota inh: -16%; BLM helicase inh: -2%; Pol kappa inh: -8%; Pol beta inh: 38%; APE1 inh: 2%

What do the screens show for `O=C(Nc1nc2ccccc2n1CCN1CCCC1)c1ccc(Cl)cc1`?
POLH inh: 2%; Pol iota inh: 17%; BLM helicase inh: -2%; Pol kappa inh: -3%; Pol beta inh: 0%; APE1 inh: -3%

What do the screens show for `Cn1c(COc2ccccc2)nnc1SCCN1CCOCC1`?
POLH inh: -8%; Pol iota inh: 13%; BLM helicase inh: -3%; Pol kappa inh: 8%; Pol beta inh: 4%; APE1 inh: -2%

What do the screens show for `CCc1ccc(NSc2ccccc2[N+](=O)[O-])cc1`?
POLH inh: -17%; Pol iota inh: -1%; BLM helicase inh: -15%; Pol kappa inh: -10%; Pol beta inh: -19%; APE1 inh: -3%

Results for O=C(C1CCCN(Cc2ccccc2Br)C1)N1CCCCC1 (stereo not given) ?
POLH inh: 4%; Pol iota inh: 6%; BLM helicase inh: 1%; Pol kappa inh: 0%; Pol beta inh: 20%; APE1 inh: -3%

How did CN(C)c1ccc(-c2ccc([C@H]3[C@@H]4C=CCC[C@@]4(C)C(=O)N3Cc3ccccc3)c(F)c2)cc1 do in these assays?
POLH inh: -8%; Pol iota inh: -14%; BLM helicase inh: -4%; Pol kappa inh: -6%; Pol beta inh: -2%; APE1 inh: -5%

What do the screens show for `CCCOc1cc(NCc2ccccc2)c2ncn(C(C)C)c2c1`?
POLH inh: -25%; Pol iota inh: 8%; Pol kappa inh: -9%; APE1 inh: -2%

How did CC(C)c1ccc(C(=O)CSc2ncn[nH]2)cc1 do in these assays?
POLH inh: -10%; Pol iota inh: inconclusive; BLM helicase inh: -1%; Pol kappa inh: 6%; Pol beta inh: 40%; APE1 inh: -4%

Results for CC1(CCc2ccc3c(c2)OCO3)NC(=O)c2ccccc2N1 (stereo not given) ?
POLH inh: -10%; Pol iota inh: 20%; BLM helicase inh: 1%; Pol kappa inh: -4%; Pol beta inh: 8%; APE1 inh: -2%

How did COc1ccc(-c2cc(=Nc3ccc(C)cc3)c3ccccc3o2)cc1 do in these assays?
POLH inh: -12%; Pol iota inh: 4%; BLM helicase inh: -8%; Pol kappa inh: -12%; Pol beta inh: 8%; APE1 inh: 13%

How did COc1cc(OC)c(OC)cc1CN1CCCC(C(=O)N2CCCC2)C1 (stereo not given) do in these assays?
POLH inh: -15%; Pol iota inh: 137%[activator]; BLM helicase inh: -1%; Pol kappa inh: -6%; Pol beta inh: 36%; APE1 inh: -7%

What do the screens show for `Cc1ccc(NC(=O)c2cccnc2C(=O)O)nc1`?
POLH inh: -14%; Pol iota inh: 22%; BLM helicase inh: -4%; Pol kappa inh: 9%; Pol beta inh: 18%; APE1 inh: 13%

How did Brc1cccc(OCCOCCn2ccnc2)c1 do in these assays?
POLH inh: -3%; Pol iota inh: 6%; BLM helicase inh: 2%; Pol kappa inh: -4%; Pol beta inh: 0%; APE1 inh: -8%

What do the screens show for `COc1ccc(CNCc2cccc(Cl)c2)cc1`?
POLH inh: -15%; Pol iota inh: 4%; BLM helicase inh: -8%; Pol kappa inh: 0%; Pol beta inh: -2%; APE1 inh: -2%

Assay outcomes deposited in PubChem BioAssay by National Center for Advancing Translational Sciences (NCATS).
